Compound activity: PubChem, several laboratories
Bead autofluor – flagged as autofluorescent in microsphere protease counterscreen; AID 624483; 360,000 tested, 3.1% active; fluorescence intensity (test concentration not listed); compound autofluorescence counterscreen, microsphere flow cytometry; hits give high values;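 active = at least 3 SD above the mean of all compounds, about 16000 in these data; inconclusive = too few beads counted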;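 note: 100 nL of 1 mM stock went into each well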
BJeLR viability – kills HRASV12-expressing BJeLR cells; AID 1554; BJeLR (HRASV12) viability, CellTiter-Glo ATP luminescence, 48 h; reference of the scale not given here; inhibition, % (no concentration beside the values); 300,000 tested, 0.17% active;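 active = replicate mean above 50%; inconclusive = above 50% but judged a plate artefact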;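 note: 50 nL library stock added to about 25 µL; numbers are from one replicate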
RN4220 kill – S. aureus RN4220 growth inhibition; inhibition, % (no concentration beside the values); 330,000 tested, 0.33% active; OD600, 16 h;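 active = z-score of -3 or lower and OD600 up to 0.18 on both plates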;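 note: plate controls were untreated cells for no effect and reference antibiotic for full effect; stock transfer was 100 nL into about 80 µL; one replicate is shown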
PrP 5UTR inh – inhibition of PrP 5' UTR reporter expression; cell-based PrP 5' UTR mRNA reporter, plate reader; inhibition, % (test concentration not listed); 340,000 tested, 0.35% active; AID 488862;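 active = every replicate at 50% or more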;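 note: 0 = median of the neutral control wells; tested in H4 reporter cells; numbers are from one replicate; inactives centre near -14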
Mtb hypoxia inh – reduces hypoxia-regulated biosensor signal in M. tuberculosis | M. tuberculosis hypoxia-regulated fluorescent reporter, fluorescence | fluorescence inhibition, % (concentration not given with the values) | 300,000 tested, 0.1% active | AID 1159583;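 active = 35 to 45% if threefold the growth effect, above 45% if 1.5-fold the growth effect; inactive = the rest, general growth blockers included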;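 note: wells of about 50 µL received 100 nL stock; 0% = vehicle wells and 100% = reference inhibitor wells; whole bacteria with a GFP reporter of the hypoxia response; strong numbers were not always called active; many hits fall short of the cut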
Sa ugtP lethal – growth inhibition of S. aureus ugtP deletion strain; S. aureus RN4220 ugtP deletion, OD600 growth, 16 h; some inactives read as strong as hits; growth inhibition, % (test concentration not listed); 330,000 tested, 0.54% active;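 active = z-score under -3 and OD600 up to 0.15 on both plates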;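 note: plate controls were untreated wells for no effect and antibiotic for full effect; wells of about 80 µL received 100 nL stock; the first replicate is given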
Mtb hypoxia inh growth – second read-out of Mtb hypoxia inh, no call of its own (marks repeat the call); growth inhibition, %; measured here: M. tuberculosis growth (absorbance);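 0% = vehicle and 100% = reference antibiotic; read after six days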
Active calls of the source: *; ? = inconclusive; . = not tested or not shown.

SMILES	Bead autofluor	BJeLR viability	RN4220 kill	PrP 5UTR inh	Mtb hypoxia inh	Mtb hypoxia inh growth	Sa ugtP lethal
O=C(NCc1cccc2[nH]ccc12)C1CCC(=O)N(CCc2ccc(Cl)cc2)C1 (stereo unspecified)	5709	1	0.4	-13	3	6	4
O=C(CN(Cc1ccc(F)cc1)C(=O)CCC(=O)Nc1nccs1)NCC1CCCO1 (stereo unspecified)	4168	-5	3.0	2	-7	-8	4
Cc1cc(/C=C2/NC(=O)N(c3ccccc3)C2=O)c(C)n1-c1cccnc1	2110	6	.	-91	.	.	.
CC(C)(C)SCCNC(=O)CN(c1ccccc1)S(=O)(=O)c1ccccc1	4240	0	2.5	-39	8	8	5
Cc1ccc(S(=O)(=O)N(C)C)cc1NC(=O)COC(=O)C1(c2ccccc2)CC1	?	-1	1.4	-14	2	5	3
O=C(O)Cc1csc2ccccc12	3114	-8	-10	-83	15	5	-3
COc1cc(C(=O)NCC(=O)N/N=C/c2ccccn2)cc(OC)c1OC	2100	-1	.	-18	.	.	.
Cc1ccc(-c2noc(COc3ccccc3C)n2)cc1	9040	3	1.1	-27	10	17	77
CCOc1ccccc1NS(=O)(=O)c1cccs1	4672	10	1.2	-27	.	.	2
O=C(c1cc2c(s1)CCCC2)N1CCC2(CC1)OCCO2	23757*	7	5.6	-7	14	13	1
COc1ccc(C(=O)NC(=S)NNC(=O)c2cnccn2)cc1OC	10330	-4	24	-9	13	2	-13
COc1ccc(-c2ccc(=O)n(Cc3cc(=O)n4ccccc4n3)n2)cc1	2585	-4	3.5	66*	8	2	4

At a glance, some entries already given.
SMILES	Bead autofluor	BJeLR viability	RN4220 kill	PrP 5UTR inh	Mtb hypoxia inh	Mtb hypoxia inh growth	Sa ugtP lethal
O=C(NCc1cccc2[nH]ccc12)C1CCC(=O)N(CCc2ccc(Cl)cc2)C1 (stereo unspecified)	5709	1	0.4	-13	3	6	4
O=C(CN(Cc1ccc(F)cc1)C(=O)CCC(=O)Nc1nccs1)NCC1CCCO1 (stereo unspecified)	4168	-5	3.0	2	-7	-8	4
Cc1cc(/C=C2/NC(=O)N(c3ccccc3)C2=O)c(C)n1-c1cccnc1	2110	6	.	-91	.	.	.
CC(C)(C)SCCNC(=O)CN(c1ccccc1)S(=O)(=O)c1ccccc1	4240	0	2.5	-39	8	8	5
Cc1ccc(S(=O)(=O)N(C)C)cc1NC(=O)COC(=O)C1(c2ccccc2)CC1	?	-1	1.4	-14	2	5	3
O=C(O)Cc1csc2ccccc12	3114	-8	-10	-83	15	5	-3

(more compounds)
SMILES	Bead autofluor	BJeLR viability	RN4220 kill	PrP 5UTR inh	Mtb hypoxia inh	Mtb hypoxia inh growth	Sa ugtP lethal
Cc1c(/C=N/n2cnnc2)c2ccccc2n1CCOc1ccccc1	8392	-3	.	-12	.	.	.
Cc1cccc(-n2c(C)nc3cc(C(=O)NCC4CCCO4)ccc32)c1 (stereo unspecified)	5356	-1	0.2	-22	-1	3	8
CCc1c(C)nc2ncnn2c1Nc1ccccc1C	4278	1	0.2	-30	-5	6	-2
CC(C)CCNC(=O)CSc1nc2ccccc2s1	3270	-3	2.8	-6	15	9	4
Cc1ccc(NC(=O)C2CC(=O)n3c(nc4ccccc43)N2)cc1 (stereo unspecified)	7101	4	1.5	-24	5	4	0
CC(C)NC(=S)Nc1ccc2nc3n(c(=O)c2c1)CCCCC3	9585	-1	4.6	-15	10	6	8
COc1ccc(CCn2c(C(C)C)nc3oc4ccccc4c(=O)c3c2=O)cc1	3281	2	3.5	-9	-1	-4	-9
O=c1cc(NN=Cc2ccccc2)[nH]c(=O)[nH]1	.	.	3.1	.	-9	0	-1
CC1(C)CCC/C(=C\c2ccccc2)C1=O	4052	0	.	-22	.	.	.
Cc1nn(CC(=O)Nc2ccc3nc4n(c(=O)c3c2)CCCC4)c(C)c1[N+](=O)[O-]	4958	4	4.9	-11	-6	1	0
CCCCN(Cc1cccs1)S(=O)(=O)c1ccc(-c2ccc(=O)[nH]n2)s1	6112	-3	11	-4	5	2	-4
O=C(CCNS(=O)(=O)c1ccccc1C(F)(F)F)NNC(=O)C1COc2ccccc2O1 (stereo unspecified)	?	-3	1.9	-16	-4	-5	0
CCOC(=O)CSc1nc2c(c(=O)n1-c1ccc(OC)cc1)SCC2	5176	-4	-4.0	-2	3	13	-3
CC(C)OC(=O)/C(=C\c1cccc2ccccc12)NC(=O)c1ccccc1	2222	11	-1.2	2	-12	-11	14
Cc1ccc2nc(SCC(=O)NCc3ccccc3)nc(=O)n2c1	6468	-2	-0.2	-10	-4	10	3
CC1(C)CC(=O)c2ccc(O)cc2O1	4455	8	2.9	-16	3	0	-3
Cc1ccc(S(=O)(=O)N2CCCCC2)cc1NC(=O)Cn1ccsc1=N	4513	11	-0.3	-22	17	12	5
Cc1ccccc1NS(=O)(=O)CCCCC(Cl)(Cl)Cl	4753	-2	6.8	-5	-1	5	-9
O=C(COc1ccc(Br)cc1)Nc1ccc(S(=O)(=O)Nc2ccccn2)cc1	6219	3	0.6	-7	4	0	4
COc1ccc(NS(=O)(=O)c2ccc(NC(=S)NC(=O)c3ccc(F)cc3)cc2)nn1	2544	1	2.6	-23	5	4	75
COc1ccccc1C(=O)NNC(=O)c1cccc(C)c1	3812	-11	1.7	-38	4	-3	6
C=CCNC(=S)NNC(=O)c1cccn(Cc2ccc(Cl)cc2)c1=O	?	4	3.9	-4	13	6	7
Cc1ccc2cc3c(nc2c1)N(c1ccccc1)CC3	3285	-28	5.6	-56	17	3	1
Cc1cc(C(=O)Nc2cccc3ccccc23)c(C)o1	4323	-12	-2.3	-7	-5	-6	2
CSc1ccccc1C(=O)OCC(=O)N1CCN(C(C)=O)CC1	3566	.	1.7	-17	8	3	2
Cc1ccc(S(=O)(=O)N2CCCCC2)cc1NS(=O)(=O)c1ccc(Cl)c(C(=O)O)c1	5977	.	5.9	-2	-4	-1	10
Cc1cccc(-n2cc(CN3CCN(C(=O)c4ncn[nH]4)CC3)c(-c3cccc(F)c3)n2)c1	4719	.	6.9	-22	-6	1	1
Cc1ccc(C2C(C(=O)c3sc(C)nc3C)=C(O)C(=O)N2CCN(C)C)o1 (stereo unspecified)	9985	-8	7.6	-4	0	8	-1
COc1ccc(CC2C(=O)N(c3ccccc3)C(=O)N(c3ccccc3)C2=O)c(OC)c1	?	-17	5.8	-15	1	5	-1
CC(C)c1cc(CN2CCN(C3CCCC3)C(CCO)C2)[nH]n1 (stereo unspecified)	4288	-9	14	-28	6	2	-70
C=C(C)Cn1cnc2c(oc3nc4c(cc32)CCCC4)c1=O	3404	4	6.0	-44	5	10	8
O=[N+]([O-])c1ccc(CSc2ccccn2)cc1	3566	-1	3.7	.	9	2	3
CN1CC(=O)N2Cc3[nH]c4ccccc4c3C[C@H]2C1=O	3755	-2	5.0	-4	-12	-8	5
Cc1ccc(S(N)(=O)=O)c(C)c1N1CCCC1=O	3405	4	2.0	-7	1	4	-10
NS(=O)(=O)c1ccc(CCNC(=O)Cc2cccs2)cc1	3706	-7	3.1	-4	5	6	4
NS(=O)(=O)c1ccc(CNC(=O)c2ccccc2SCC(=O)N2CCCC2)cc1	?	-5	-0.6	-17	-10	-9	2
O=C(Cc1ccccc1)Nc1nonc1NC(=O)c1ccccc1	4129	3	11	-7	.	.	0
COc1ccccc1OCC(=O)N1CCCC(N2CCN(c3ccc(F)cc3)CC2)C1 (stereo unspecified)	4781	-7	1.6	-14	12	7	3
COc1ccc(S(=O)(=O)N2CCC(Cc3ccccc3)CC2)cc1NC(C)=O	3422	19	1.8	-18	-3	1	10
COc1ccccc1NC(=O)N1CCCC1C(=O)Nc1ccc2c(c1)OCCO2 (stereo unspecified)	2413	-4	2.2	-24	4	10	3
O=C(CC1C(=O)NCCN1Cc1ccc(-c2ccccc2)cc1)NCCc1ccccn1 (stereo unspecified)	4758	2	2.5	-18	7	4	-2
O=C(CCNC(=O)c1ccccc1Cl)Nc1cccc(S(=O)(=O)N2CCCC2)c1	3866	.	2.1	-7	13	0	0
COC(=O)CCN(C(=O)c1ccc(N2CCCC2)c([N+](=O)[O-])c1)c1ccccn1	3264	0	5.0	-21	16	-1	3
CCCn1c(SCc2ccon2)nc2ccccc2c1=O	3558	5	8.0	-2	8	0	3
Cc1ccnc(N2CCC(C(=O)NNC(=O)COc3cccc4ccccc34)CC2)n1	2507	1	1.2	-11	6	8	4
CC(=O)c1ccc2c3c(cccc13)CC2	4186	-7	6.2	-11	.	.	3
O=C(CN(CCc1ccccc1)C(=O)c1csnn1)NC1CCCC1	4519	1	0.2	-21	12	15	5
CNC(=S)N/N=C/c1ccccc1OCC(=O)O	4195	-12	.	-11	.	.	.
COc1cc2cc3c(N)c(C(=O)NCc4ccco4)sc3nc2cc1OC	3007	-7	7.5	-19	.	.	-9
Cc1ccc(NC(=O)CC2S/C(=N/N=Cc3c[nH]c4ccccc34)NC2=O)cc1 (stereo unspecified)	.	.	-5.5	.	-7	-4	-6
COc1ccccc1NC(=S)N1CCC(c2nc3ccccc3o2)CC1	2016	-7	4.0	-26	1	1	1
Brc1ccc(CNc2nc3ccccc3n2CCN2CCCCC2)cc1	4804	0	1.5	-8	10	23	1
O=C(CCC(=O)Nc1ccccc1Cl)NNC(=O)C1CCCCC1	3815	.	2.0	-16	-5	-2	1
CCN(CC)CCOC(=O)c1c(C)oc2ccc(OC)cc12	10339	-2	-2.6	-6	1	-2	1
O=C(N/N=C/C=C\c1cccc([N+](=O)[O-])c1)c1cccnc1	4790	-11	.	-45	.	.	.
COCC(C)NS(=O)(=O)c1ccc(C)cc1 (stereo unspecified)	.	-2	7.0	-2	15	8	5
O=C(N/N=C/C=C/c1ccccc1)c1cc2c(ccc3ccccc32)o1	2498	3	.	-5	.	.	.
CC(=O)Nc1ccc(S(=O)(=O)N2CCCc3ccccc32)cc1	10135	7	13	-31	11	5	-7
Cc1ccccc1-c1nc2ccccc2c(=O)n1C	3408	-10	3.0	-19	9	4	3
Cc1cccc(NC(=O)Cn2cnc(S(=O)(=O)N3CCCC3)c2)c1C	6142	-3	-0.7	3	1	-3	3
Next entries follow:
SMILES	Bead autofluor	BJeLR viability	RN4220 kill	PrP 5UTR inh	Mtb hypoxia inh	Mtb hypoxia inh growth	Sa ugtP lethal
Cc1cc(C)n(C(=O)c2cc3sccc3[nH]2)n1	10870	-1	9.9	-29	5	3	-3
Cc1cc(C)cc(C(=O)N2CC(C)OC(C)C2)c1 (stereo unspecified)	22829*	-9	-0.5	2	4	14	-4
COc1ccc(C2(c3ccc(OC)cc3)NC(=O)N(CC(=O)Nc3ccc(OC)c(OC)c3)C2=O)cc1	6359	-4	-4.3	-20	11	4	5
COC(=O)c1ccc(OCC(=O)NCCC2=CCCCC2)c(OC)c1	3866	.	1.7	-32	5	7	4
O=S(=O)(NCc1ccc2c(c1)OCO2)c1ccccc1F	3833	3	1.8	-9	-4	1	1
O=C(CSc1nnc(CNC(=O)c2ccccc2)o1)NCc1ccccc1	5555	-1	1.3	9	-7	1	3
CN(C)S(=O)(=O)c1cccc(NC(=O)CCNC(=O)c2ccccc2Cl)c1	2379	4	2.6	-26	8	11	11
O=c1[nH]c(C2CCN(S(=O)(=O)c3ccc(S(=O)(=O)NC4CC4)cc3)CC2)nc2c1nnn2Cc1ccccc1	4007	-8	1.1	-21	7	12	10
CN(CCNC(=O)C1(O)c2ccccc2NC(=O)N1c1ccccc1)Cc1ccccc1 (stereo unspecified)	8322	.	-1.8	-12	3	7	1
C/C(=N\NC(=O)c1nnn(-c2nonc2N)c1CSc1ccc(C)cc1)c1ccco1	5869	1	.	-27	.	.	.
Cc1ccc(C(=O)C2CCN(S(=O)(=O)c3ccc(C(=O)O)cc3)CC2)cc1	3521	7	.	-34	.	.	.
Cc1cc(C(=O)NNC(=S)NC(C)c2ccccc2)cs1 (stereo unspecified)	2597	-9	2.5	-42	5	5	8
CC(C)Cc1ccc(CN2CCCC(NC(=O)CCCN3CCCC3=O)C2)cc1 (stereo unspecified)	5647	16	3.3	-29	9	-5	1
COC(=O)c1c(-c2ccccc2)csc1NC(=O)c1ccco1	9000	2	9.7	-151	1	-1	19
c1coc(CNc2ncnc3c2oc2ccccc23)c1	9454	.	5.9	-15	25	16	4
Cc1cc(-c2csc(NCc3ccccc3)n2)c(C)n1C	3282	.	3.5	-5	4	5	-5
COc1ccc(N=C2SC(=Cc3cc(C)n(C)c3C)C(=O)N2C)cc1	.	.	3.9	.	14	11	-7
CCOc1ccc(Nc2nc3c(C)cccc3cc2C#N)cc1	4651	-7	-1.9	-9	4	17	7
